TRPML1 agonist – qHTS for Agonists of the Human Mucolipin Transient Receptor Potential 1 (TRPML1) | activation, % (no concentration beside the values) | hit rate 0.12% among 410,000 | Mucolipin-1 (Homo sapiens), Q9GZU1 | TRPML1-expressing cells, Ca2+ dye fluorescence, FDSS; host cell line not named in the record; reference of the full effect not given here; in the data active = activation above about 50%; inconclusive = about 30% to 50%; inactive = below about 30%; note: 0% is about no effect; the text of the record puts the active cut at 80%
Target sequence (Q9GZU1 whole entry, looked up): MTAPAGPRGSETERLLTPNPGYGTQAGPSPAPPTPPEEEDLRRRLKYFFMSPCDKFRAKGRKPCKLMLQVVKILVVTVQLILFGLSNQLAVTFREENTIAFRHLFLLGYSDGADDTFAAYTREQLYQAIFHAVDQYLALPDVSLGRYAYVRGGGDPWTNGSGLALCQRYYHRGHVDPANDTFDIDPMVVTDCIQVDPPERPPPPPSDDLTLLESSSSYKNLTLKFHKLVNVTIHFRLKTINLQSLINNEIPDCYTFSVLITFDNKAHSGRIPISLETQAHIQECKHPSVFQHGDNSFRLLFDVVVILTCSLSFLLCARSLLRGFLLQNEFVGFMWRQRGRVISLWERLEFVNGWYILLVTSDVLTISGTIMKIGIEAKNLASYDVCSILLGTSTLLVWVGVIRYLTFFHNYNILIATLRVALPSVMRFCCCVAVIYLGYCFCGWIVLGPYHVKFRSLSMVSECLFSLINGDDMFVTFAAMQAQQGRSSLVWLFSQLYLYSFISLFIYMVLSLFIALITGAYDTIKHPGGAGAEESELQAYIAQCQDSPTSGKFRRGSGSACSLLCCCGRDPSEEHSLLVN
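Calcium fluorescence on an FDSS kinetic reader gave the read-out. Tet-induced TRPML1-DL cells were plated overnight, dye-loaded (Ca8 with quencher, 45-90 min, room temperature, dark), then read 110 s after compound addition, and again 110 s after 4uM final 54-4 (EC80).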
Six1-Eya2 inh – qHTS Assay for Inhibitors of the Six1/Eya2 Interaction; Homeobox protein SIX1 (Homo sapiens) + Protein phosphatase EYA2 (Homo sapiens), …; AlphaScreen GST-Six1/His-Eya2 binding, biochemical; stronger effect = lower value; control for the full effect not named in the record; activity change, % (concentration not given with the values); hit rate 0.56% among 360,000; AID 651725, 2012; in the data active = activity change below about -65%; inconclusive = about -30% to -65%; inactive = above about -30%; note: % is set by controls: 0 for no effect and ±100 for the full control effect
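Six1/Eya2 binding was read as AlphaScreen signal after compounds were pinned into GST-Six1 plus His-tagged Eya2 (5X stock 250/500 nM) in pH 8.0 Tris/NaCl/TCEP buffer, beads added, then incubated 1 h, 37 C, dark.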
TRPML1 inh – qHTS for Inhibitors of the Human Mucolipin Transient Receptor Potential 1 (TRPML1). Mucolipin-1 (Homo sapiens), Q9GZU1. TRPML1-inducible cells, Ca2+ dye fluorescence, FDSS; stronger effect = lower value; inhibition of EC80 agonist-evoked calcium signal. activity change, negative = inhibition, % (test concentration not listed). hit rate 0.02% among 390,000; in the data active means activity change below about -50%; inconclusive means about -30% to -50%; inactive means above about -30%;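 note: stimulus is agonist 54-4 at its EC80 concentration; % is set by controls: 0 for no effect and ±100 for the full control effect; compound concentration not given in the record; the text of the record puts the active cut at -80%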
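TRPML1-DL cells, Tet-induced overnight (~16 h, 37 °C) at 1,500 cells/well, were loaded with Ca8 no-wash dye plus quencher for 45-90 min at room temperature. Compounds were pinned during FDSS kinetic reading; agonist 54-4 at EC80 (4 uM final) then added.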
PINK1 expr mod – A Quantitative High throughput Screen to Identify Chemical Modulators of PINK1 Expression; Potency, µM (top dose mostly 76.6 µM), without a hit: at the highest dose activation (PINK1 increase), most hits filed as activators; PINK1 immunofluorescence, high-content cytometry, 24 h; hit rate 0.2% among 410,000; active = well fitted activation curve with a large enough effect; inconclusive = small, poorly fitted or top-dose-only effect; inactive = flat fitted curve, though single readings scatter; cell line not stated here;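 note: potency is the fitted concentration of half-maximal effect; % of control where 0% means no effect; nearly all actives have a fitted effect of over 65% in size; a mitochondrial uncoupler was the plate control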
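PINK1 protein, normally rapidly degraded, was detected by immunofluorescence after 24 hour compound treatment of a stable cell line. Titration data (5 concentrations) came from laser-scanning cytometry, with CCCP-treated wells as controls.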
D2 agonist – Beta-Arrestin HTS for Positive Allosteric Modulators of the Human D2 Dopamine Receptor: Agonists; DiscoveRx PathHunter D2 beta-arrestin, luminescence, 90 min; 100% = 57 uM dopamine signal; activation, % (test concentration not listed); hit rate 0.084% among 360,000; in the data active = activation above about 40%; inconclusive = about 15% to 40%; inactive = below about 15%; note: compound concentration not given in the record; the text of the record calls up to 30% inactive
Target sequence (P14416 whole entry, looked up): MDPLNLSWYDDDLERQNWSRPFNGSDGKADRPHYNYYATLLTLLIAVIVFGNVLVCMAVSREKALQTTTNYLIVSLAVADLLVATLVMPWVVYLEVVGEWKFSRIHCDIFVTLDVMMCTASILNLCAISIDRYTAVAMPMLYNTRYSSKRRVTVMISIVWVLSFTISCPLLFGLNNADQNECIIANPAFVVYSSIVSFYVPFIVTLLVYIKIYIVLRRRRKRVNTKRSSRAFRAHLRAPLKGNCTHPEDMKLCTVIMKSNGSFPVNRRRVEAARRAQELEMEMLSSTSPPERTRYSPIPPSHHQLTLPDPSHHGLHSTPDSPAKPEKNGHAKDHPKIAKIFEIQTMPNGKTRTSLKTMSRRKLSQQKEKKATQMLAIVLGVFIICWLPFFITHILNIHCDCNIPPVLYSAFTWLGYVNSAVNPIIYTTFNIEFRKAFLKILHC
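DiscoveRx PathHunter D2 beta-arrestin cells (2,100/well) attached overnight, then compound-stimulated 90 min at 37 C in HBSS/10 mM HEPES/0.1% Tween-20 buffer; beta-galactosidase complementation read by luminescence after 1 h at ambient temperature. Dopamine 57 uM final (EC100) as control.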
D2 PAM – Beta-Arrestin HTS for Positive Allosteric Modulators of the Human D2 Dopamine Receptor: Potentiators; potentiation, % (test concentration not listed); DiscoveRx D2 beta-arrestin cells, luminescence, 90 min; 100% = 57 uM dopamine signal; AID 624464, 2012; hit rate 0.23% among 360,000; active = potentiation of 50% or more; inconclusive = 30% to 50%; inactive = 30% or less;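 note: compound concentration not given in the record; tested on top of an EC20 dose of dopamine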
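PathHunter D2 cells, attached overnight at 37 deg C, received compound in DMSO plus dopamine at EC20 (50 nM final) for 90 min at 37 deg C. Beta-arrestin recruitment was read as luminescence after 1 h with detection reagent at ambient temperature.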
Numbers without * were called inactive; ? = inconclusive; · = not tested or not shown; & = joins results of further samples; [ ] = remark or other dose.

structure	PINK1 expr mod	TRPML1 inh	Six1-Eya2 inh	TRPML1 agonist	D2 PAM	D2 agonist
CCOC(=O)C(Cc1ccnnc1)=NO	3.3%	-11	12	0.2	2	-4.1
c1ccc(-c2cc3ccccc3nc2N2CCCC2)cc1	?	-12	99	2.3	-23	3.9
O=C(Nc1cccc(-c2nc3ccccc3s2)c1)c1cc(-n2cnnc2)ccc1Cl	-5.2%	31	-15	2.9	6	7.3
COc1cccc(/C=C/C(=O)OCC(=O)Nc2cc(C(F)(F)F)ccc2Cl)c1	2.3%	2	23	-0.2	-3	-1.4
C(#CCN1CCOCC1)COC(c1ccccc1)c1ccccc1	10%	-1	0	-1.0	4	-3.9
C[C@H]1CN(CCc2ccccc2)C(=O)[C@@H]1CC(=O)Nc1ccc(Br)cc1	2.7%	-3	1	-0.7	-4	-6.8
CCOc1ccc(CN2C(=O)c3ccccc3C2C(=O)NCc2cccnc2)cc1 (configuration not stated)	?	8	3	0.3	-11	-1.5
COc1cccc(OCC(=O)NCCS(=O)(=O)N2CCN(c3ccccc3F)CC2)c1	0.2%	3	·	3.8	·	·
C/C(=N\NC(=O)c1ccco1)c1cc(Cl)sc1Cl	0.2%	9	3	1.1	-7	5.2
Fc1cccc(Nc2cc(-n3cccn3)ncn2)c1	?	3	0	2.3	3	2.0
C=CC[C@H](CC(=O)N(CCO)Cc1ccccc1)C(=O)N[C@@H](COC(=O)[C@@H](CC=C)Cc1ccc(F)cc1)Cc1c[nH]c2ccccc12	4.3%	17	-27	0.7	·	3.5
O=C(OCC(=O)N1CCOCC1)c1cc(-c2ccccc2)nc2ccccc12	2.9%	4	12	0.7	-7	-1.0
CCCn1c(=N)c(C(=O)NC2CCCCC2)cc2c(=O)n3cc(C)ccc3nc21	3.3%	11	·	0.2	·	·
Cc1c(Cl)cccc1NC(=O)c1cccc(OC(F)F)c1	5.0%[38.3 µM]	-4	3	2.0	-4	-2.0
Cn1nnnc1SCC(=O)Nc1ccccc1Br	-1.4%	-1	1	0.9	-5	2.7
O=C(CSc1ncccn1)N1CCCC1	1.4%	-6	-1	0.0	-4	-5.7
Fc1cccc(Cl)c1CNCCSc1nnnn1-c1ccccc1	-0.3%	1	·	0.8	·	·
O=C(O)c1cc(-c2ccc3c(c2)OCO3)nc2ccc(Cl)cc12	2.1%	1	1	-0.3	-1	-6.0
COc1cc(C)nc(N(C)C(C)=O)n1	2.7%	-9	9	0.5	-7	-1.3
N#Cc1ccc(Oc2ccc(S(=O)(=O)N3CCCC3)cn2)cc1	-1.0%	5	0	0.2	-70	-3.1

Next structures follow:
structure	PINK1 expr mod	TRPML1 inh	Six1-Eya2 inh	TRPML1 agonist	D2 PAM	D2 agonist
N=C1c2c(cc(=O)n3c2[nH]c2ccccc23)CN1CCN1CCOCC1	1.7%	10	?	-0.6	-5	-4.6
CCC1Oc2ccccc2N(CC(=O)NCCC2=CCCCC2)C1=O (configuration not stated)	5.6%[38.3 µM]	-9	1	0.8	-8	-2.4
Cc1ccc(Nc2c(-c3ccc(C)cc3)nc3cnccn23)cc1	3.5%	52	·	0.0	·	·
CCn1nc(C)c(/C=N/NC(=O)CSc2ccccn2)c1C	3.7%	4	0	0.3	-3	-2.8
CC1(C)CC(=O)C2=C(C1)Nc1nc(SCCN3CCOCC3)[nH]c(=O)c1C2c1cccs1 (configuration not stated)	2.4%	22	13	1.2	19	-2.3
CCOC(=O)CNC(=O)C1(/C=C/c2ccccc2)CC(=O)N1c1ccc(C)cc1 (configuration not stated)	0.8%	23	0	2.0	-8	-1.4
COc1ccc(NC(=O)CN(C)C(=O)Cc2ccc3c(c2)CCC3)cc1	-0.1%	-18	-3	0.0	1	-1.7
COC(=O)c1cccc(CC2(C)C(=O)Nc3ccc(OC(F)(F)F)cc32)c1 (configuration not stated)	2.0%	·	12	-1.1	2	-1.3
CCCc1cc(=O)[nH]c(SCC(=O)N(C)CC(=O)Nc2ccc(F)cc2)n1	3.0%	1	-6	-0.2	-7	0.0
COC(=O)c1ccc(NC(=O)c2ccco2)cc1	7.1%[38.3 µM]	10	1	-0.6	-5	1.2
Cc1ccc(NC(=O)c2ccccc2O)cc1	0.8%	12	1	-0.5	-30	-6.6
Cc1ccc(NC(=O)NNC(=O)c2cc3ccccc3cc2O)c(C)c1	4.6%	-3	-2	0.1	-18	-3.8
c1ccc(Nc2nc(N3CCOCC3)c3ccccc3n2)cc1	-1.0%	12	6	-0.4	-12	-4.0
COc1ccccc1C(=O)OCc1ccc2sc(C)nc2c1	1.6%	0	6	1.9	18	5.5
COc1ccc2cc(Br)ccc2c1CC(=O)NC1CC(C)(C)NC(C)(C)C1	-4.7%	-1	-1	0.0	-15	0.1
CCOc1ccccc1CNC(=O)C1CCN(c2nnc(C)c3c(C)n(-c4ccc(C)cc4)nc23)CC1	-1.8%&2.3%	31&16	-5	2.5&4.0	-19	-1.4
CCOc1cccc2sc(N(Cc3cccnc3)C(=O)C3CCCCC3)nc12	1.9%	11	·	1.2	·	·
CCCCOc1ccc(N=Nc2ccc(N)nc2N)cn1	4.6%	-8	-7	-0.6	-4	-1.1
COc1cc2c(cc1OC)CN(C(=O)CCc1c[nH]c3ccccc13)[C@H](C(=O)O)C2	1.8%	-1	-3	-0.7	-3	0.5
CC(=O)N1CCc2cc(Br)cc(S(=O)(=O)CCC(=O)Nc3ccc(C)cc3Cl)c21	1.4%	-8	·	-0.8	·	·

Continuation:
structure	PINK1 expr mod	TRPML1 inh	Six1-Eya2 inh	TRPML1 agonist	D2 PAM	D2 agonist
CC(c1ccccc1)N(NC(=O)C(O)(c1ccccc1)c1ccccc1)C(=O)c1ccccc1 (configuration not stated)	?	24	10	-0.6	13	1.7
O=C(NCCCn1ccnc1)/C(=C\c1cccnc1)NC(=O)c1ccccc1F	0.3%	-3	0	-0.5	12	-6.3
CCC(=O)N1CCCc2cc(S(=O)(=O)N3CCC(C(=O)NCc4ccc(F)cc4)CC3)ccc21	4.1%	-6	·	-0.6	·	·
O=C(C1CC1)N1CCC(C(O)(c2ccccc2)c2ccccc2)CC1	-1.1%	-8	-1	-0.4	7	-2.0
CC(=O)Nc1cc(-c2cccc(C(=O)NCCO)c2)cn2c(-c3ccc(F)c(Cl)c3)cnc12	0.5%	·	-4	-0.4	13	-3.1
COc1ccc([C@@H]2[C@@H]3C(=O)N(C(C)(C)C)C(=O)[C@@H]3[C@]3(Cc4ccccc4)C(=O)N(c4ccc(C(F)(F)F)cc4)C(=O)N23)cc1	7.4%	4	0	-0.4	-11	-2.0
N#C/C(=C\c1c(N2CCN(c3ccccc3)CC2)nc2ccccn2c1=O)S(=O)(=O)c1ccccc1	-0.8%	3	3	-0.8	-5	-6.9
CCOC(=O)c1ccc(NC(=O)C(CC)Sc2nncn3c2cc2oc(C)cc23)cc1 (configuration not stated)	1.3%	-3	·	0.1	·	·
CCOc1cc(N2CCOCC2)c(OCC)cc1NC(=O)c1ccc(F)c(S(=O)(=O)N2CCOCC2)c1	0.6%	15	5	-0.2	-18	1.4
Cc1cc2c(cc1C)C(=O)C(Br)=C(N)C2=O	?	62	?	-1.4	-3	2.7
CS(=O)(=O)c1ccc(Cl)c(NC(=O)COC(=O)c2c(Cl)cccc2Cl)c1	1.1%	-5	6	-0.4	-4	0.1
COc1cccc(CNc2nc(C(F)(F)F)nc3ccccc23)c1	15%	29	9	1.8	-2	0.2
Cn1c(CNC(=O)c2ccccc2F)cc2ccccc21	-0.6%	·	4	·	2	-0.2
CC(=O)Nc1ccc(S(=O)(=O)NC(=O)C23CC4CC(CC(C4)C2)C3)cc1	0.4%	11	8	0.0	-1	-1.4
Cc1ccccc1CN1CCc2nc(Nc3ccc4c(c3)OCCO4)ncc2C1	-1.0%	-19	·	2.0	·	·
COc1cccc(-c2csc(N3CCN(C(=S)NCC(C)C)CC3)n2)c1	1.4%	10	-12	-0.7	-4	1.6
COc1ccc(Nc2nc(N3CCCC3)nc3ccccc23)c(OC)c1	·	-4	-5	1.3	-4	-2.1
COc1ccc(N2C(=O)CC(N3CCN(c4ccc(C(=O)c5cccnc5)cc4)CC3)C2=O)cc1 (configuration not stated)	3.3%[38.3 µM]	-5	-1	4.2	27	0.1
O=C(Nc1cc(Sc2ccccn2)cc([N+](=O)[O-])c1)c1ccc(Cl)cc1	6.9%	-11	-18	2.2	-12	0.3
COc1cccc(CNC(=O)C2CCCN(c3nc4ccccc4n4cccc34)C2)c1 (configuration not stated)	-1.1%	8	·	2.3	·	·

More entries follow:
structure	PINK1 expr mod	TRPML1 inh	Six1-Eya2 inh	TRPML1 agonist	D2 PAM	D2 agonist
COc1ccccc1C(=O)COC(=O)CNC(=O)c1ccc(Br)o1	2.2%	-6	0	-0.9	-9	-11
COc1cc(Nc2nc3ccccc3nc2NS(=O)(=O)c2ccc([N+](=O)[O-])cc2)cc(OC)c1OC	-0.4%	?	?	119*	-9	5.5
COc1ccc2c(c1)CCc1c(C(=O)Nc3ccccc3C(F)(F)F)noc1-2	0.3%	18	·	-0.6	·	·
Cc1ccc(NC(=O)COCC(=O)Nc2ccc(F)cc2)cc1	4.1%	-10	22	0.6	-2	0.9
CCOC(=O)C1=C(c2ccc(O)cc2)NC(=O)NC1C (configuration not stated)	-0.9%	14	6	0.3	-6	-4.9
CCOCCCNCc1cn(-c2ccc(F)cc2F)nc1-c1ccccc1C	6.0%	-1	-8	2.5	-17	-2.5
O=C(NCC1CC1(Cl)Cl)Nc1ccc(Cl)c(Cl)c1 (configuration not stated)	?	-7	6	-0.2	-10	1.8
N#C/C(=N\Nc1ccc([N+](=O)[O-])cc1)C(=N)N1CCOCC1	0.8%	9	-15	0.6	-4	-1.8
N#Cc1ccc(CSc2nnc(Cc3cccs3)n2Cc2ccco2)cc1	-0.5%	-16	-12	0.8	-33	-7.9
O=C(NCc1ccc2c(c1)CCN2C(=O)c1ccccc1)c1cc2ccccc2[nH]1	1.5%	-8	·	3.0	·	·
COc1cccc(SCC2(O)CCN(C(=O)c3ccc(Cl)cc3)CC2)c1	-1.8%	1	-25	-1.0	-3	-5.3
CC/C(Cc1ccccc1)=N\NC(=O)c1cc([N+](=O)[O-])cc([N+](=O)[O-])c1	2.0%	1	-2	0.2	6	?
CN1CCN(C(=O)/C(=C/c2ccc(F)cc2)NC(=O)c2ccccc2)CC1	-0.4%	-7	12	-0.5	-9	-3.8

Screening data: PubChem, National Center for Advancing Translational Sciences (NCATS)
